# Bead autofluor – compound fluorescence in toxin protease inhibitor counterscreen | fluorescence intensity (concentration not given with the values) | 360,000 compounds, 3.1% hits | compound autofluorescence counterscreen, microsphere flow cytometry; active compounds read high | AID 624483;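 active = at least 3 SD above the mean of all compounds, about 16000 in these data; inconclusive = too few beads counted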;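 note: 100 nL of 1 mM stock went into each well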
# Mtb hypoxia rep – Mtb hypoxia fluorescent reporter inhibition. M. tuberculosis hypoxia-regulated fluorescent reporter, fluorescence. fluorescence inhibition, % (no concentration beside the values). 300,000 compounds, 0.1% hits;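 active = 35 to 45% if threefold the growth effect, above 45% if 1.5-fold the growth effect; inactive = the rest, general growth blockers included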;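 note: wells of about 50 µL received 100 nL stock; 0% = vehicle wells and 100% = reference inhibitor wells; whole bacteria with a GFP reporter of the hypoxia response; strong numbers were not always called active; many hits fall short of the cut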
# RN4220 kill – S. aureus RN4220 growth inhibition; OD600, 16 h; inhibition, % (no concentration beside the values); 330,000 compounds, 0.33% hits; AID 1259311;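 active = z-score of -3 or lower and OD600 up to 0.18 on both plates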;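 note: plate controls were untreated cells for no effect and reference antibiotic for full effect; stock transfer was 100 nL into about 80 µL; one replicate is shown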
# PrP UTR inh – inhibition of PrP 5' UTR reporter expression. cell-based PrP 5' UTR mRNA reporter, plate reader. inhibition, % (test concentration not listed). 340,000 compounds, 0.35% hits;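 active = every replicate at 50% or more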;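 note: 0 = median of the neutral control wells; tested in H4 reporter cells; numbers are from one replicate; inactives centre near -14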
# Sa ugtP lethal – kills S. aureus RN4220 lacking UgtP | S. aureus RN4220 ugtP deletion, OD600 growth, 16 h; some inactives read as strong as hits | growth inhibition, % (test concentration not listed) | 330,000 compounds, 0.54% hits | AID 1259309;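 active = z-score under -3 and OD600 up to 0.15 on both plates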;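 note: plate controls were untreated wells for no effect and antibiotic for full effect; wells of about 80 µL received 100 nL stock; the first replicate is given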
# BJeLR viability – kills HRASV12-expressing BJeLR cells; BJeLR (HRASV12) viability, CellTiter-Glo ATP luminescence, 48 h; reference of the scale not given here; inhibition, % (test concentration not listed); 300,000 compounds, 0.17% hits; AID 1554;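 active = replicate mean above 50%; inconclusive = above 50% but judged a plate artefact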;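 note: 50 nL library stock added to about 25 µL; numbers are from one replicate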
# Mtb hypoxia rep growth – also measured in Mtb hypoxia rep; calls as there; growth inhibition, %; measured here: M. tuberculosis growth (absorbance);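 0% = vehicle and 100% = reference antibiotic; read after six days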
# The depositor's hits bear a star; ? = inconclusive; . = no result given. An unsorted share of the library, and some 3.9% of all compounds hit somewhere here.
smiles,Bead autofluor,Mtb hypoxia rep,Mtb hypoxia rep growth,RN4220 kill,PrP UTR inh,Sa ugtP lethal,BJeLR viability
COCCn1c(C)nnc1SCC(=O)Nc1ccccc1[N+](=O)[O-],4739,-11,-1,-7.3,-10,-8,-7
C#CCOCCOCCOCCNc1nc(N2CCN(C(=O)C(Cc3cc4ccccc4[nH]3)n3cc(C(N)Cc4ccc(O)cc4)nn3)CC2)nc(N2CCN(C(=O)C(C(C)CC)n3cc(C(N)CC(C)C)nn3)CC2)n1 (stereo not given),.,.,.,-4.9,.,-2,.
Cn1c(=O)c2[nH]c(NN=Cc3ccccc3)nc2n(C)c1=O,4615,22,6,1.0,-22,2,.
Cc1oc2ccc(O)cc2c1C(=O)c1ccc([N+](=O)[O-])cc1,10423,-1,13,7.3,-17,0,2
Cn1nccc1C(=O)Nc1ccc2c(c1)OCO2,?,8,-5,2.5,-34,7,13
Cc1ccc(NC(=O)CN(C)C(=O)CSc2nnnn2C)cc1,4562,2,2,4.1,-13,-1,4
CC(C)(C)[C@@H]1C=C(C(N)=O)O[C@H](OCCCCO)C1,4043,.,.,.,-5,.,2
O=C(CSc1nnc(SCc2ccccc2)s1)N/N=C/C=C\c1ccco1,2738,.,.,.,-28,.,7
CSc1nc2nc3c(c(=O)n2[nH]1)CCC3,?,-1,4,-0.7,1,-6,-7
Cc1ccc(Cl)c(OCC(=O)OC(C)C(=O)NC2CC2)c1 (stereo not given),6710,8,0,2.6,-33,12,-7
CCOC(=O)c1c(C)nc2c(c1-c1ccc(OC)cc1)C(=O)CC(C)(C)C2,.,21,20,2.4,-4,0,0
CCOC(=O)C1CCN(S(=O)(=O)c2ccc3c(c2)N(C(C)=O)CC(C)S3)CC1 (stereo not given),5703,-5,6,2.9,0,3,8
CN(C(=O)CSc1nc2[nH]ncc2c(=O)[nH]1)c1ccccc1,4170,-9,-3,-2.6,2,-1,7
COc1cccc(C(=O)/C=C/Nc2ccc(S(=O)(=O)Nc3nc(C)cc(C)n3)cc2)c1,3233,-3,8,5.1,-3,4,-12
Cn1cccc1C=NNC(=O)c1cccs1,.,14,3,5.0,.,7,.
COc1ccccc1/C=C\C=N\n1c(C2CCCCC2)n[nH]c1=S,10546,.,.,.,-25,.,-6
Cc1c(S(=O)(=O)c2ccccn2)c(N)n(Cc2ccccc2Cl)c1C,4963,4,4,2.6,-21,-1,-6
CC(C)(C)c1ccc(OCCN2CCCC2)cc1,8851,3,8,6.0,5,4,6
CC(C)c1nc2sc3c(c2c(=O)o1)CCCC3,2584,6,10,6.2,-35,2,-6
CCOC(=O)C(NC(C)=O)(Nc1ccc(S(=O)(=O)Nc2ncccn2)cc1)C(F)(F)F (stereo not given),4136,-1,-9,5.5,-23,1,-1
O=C(c1ccc([N+](=O)[O-])o1)N1CCc2ccccc2C1,4521,47*,20*,9.4,-8,2,1
O=C(CCS(=O)(=O)c1ccc(Cl)cc1)N1CCN(c2ccc(F)cc2)CC1,.,-3,0,2.5,10,6,.
O=C(NNC(=O)C1CC=CCC1C(=O)O)c1cccs1 (stereo not given),4254,9,-4,6.3,-11,14,0
N/C(Cc1ccc([N+](=O)[O-])cc1)=N\OC(=O)c1cccc(Br)c1,2213,.,.,.,-15,.,-3
CC(=O)N1CCN(C23CC4CC(CC(C4)C2)C3)CC1,4606,19,14,2.8,-13,4,-1
NC(=O)c1ccccc1OCCOCCOCCOc1ccccc1C(N)=O,10981,-3,3,4.2,-17,2,-12
COc1cccc(NC(=O)c2ccccc2F)c1,4048,11,8,9.8,-50,4,.
CNc1nc(Cl)nc(Nc2ccccc2)n1,3294,8,7,4.4,-18,5,-4
CCOC(=O)C(C)n1cnc2sc(C)c(C)c2c1=O (stereo not given),4688,.,.,1.6,8,-2,0
COc1cccc(C(=O)NNC2=C(C(=O)C(F)(F)F)CCC2)c1,3714,0,-8,-5.9,-8,93*,-3
COc1cccc(CNC(=O)CCC(=O)N2C[C@H]3C[C@H](C2)c2cccc(=O)n2C3)c1OC,6242,.,.,2.5,-56,3,-10
O=C(c1cccc([N+](=O)[O-])c1)c1cc2ccccc2o1,2608,10,7,12,-20,2,1
CC(=NNC(=O)c1c[nH]c2ccccc12)c1ccc(C)o1,.,-15,-1,-2.8,.,-9,.
CCC(Nc1nc(-c2ccccc2)nc2ccccc12)C(=O)O (stereo not given),4965,0,10,1.1,-13,-3,-8
CCc1ccc2nc(N)sc2c1,3344,8,7,5.1,-87,-3,6
Cc1c(Cl)cccc1NC(=S)NC1CC1,2132,10,-3,-0.5,-24,3,-8
CCOc1ccc(N(Cc2cc3cc(C)ccc3[nH]c2=O)S(=O)(=O)c2ccccc2)cc1,6244,12,-1,1.8,1,6,-9
CCC(C)COC(=O)c1ccc(C(=O)O)cc1 (stereo not given),3555,.,.,0.2,-10,-2,-3
N#CCN1C(=O)C(=O)N(Cc2cccc(C(F)(F)F)c2)C1=O,3523,1,9,0.2,.,10,-1
CCOC(=O)C1(CCOC)CCN(Cc2ccc(C(=O)OC)cc2)CC1,4510,1,0,3.6,-8,5,2
COc1ccc(-n2c(SCC(=O)Nc3ccc(C(N)=O)cc3)nc3ccccc3c2=O)cc1OC,4225,2,-6,-1.3,-8,-1,-5
CN(CC(=O)Nc1ccc(F)cc1)C(=O)c1ccc(OCc2ccccc2)cc1,4240,3,-12,3.6,-30,8,.
Cc1[nH]c(=O)[nH]c(=O)c1/C=N/NC(=O)[C@@H](NC(=O)OC(C)(C)C)C(C)C,2521,.,.,.,-10,.,2
O=C(CCC1COc2ccccc2O1)Nc1ncccc1O (stereo not given),4846,.,.,7.7,-11,4,7
Cc1ccccc1CN(C)CC(=O)Nc1ccccc1-c1ccccc1,9365,2,7,-7.2,-25,-17,-9
COC(=O)c1c(NC(=O)C(Cl)Cl)sc2c1C(C(=O)OC)CC2 (stereo not given),3643,8,8,-0.2,-1,0,8
COc1ccc(CCC(C)N2CCc3ccccc3C2)cc1 (stereo not given),3951,12,9,2.3,-55,10,9
Nc1ncnc2c1ncn2[C@@H]1O[C@H](CNC(=O)[C@@H]2C[C@H](F)CN2)[C@@H](O)[C@H]1O,3812,-3,2,-0.4,-6,-2,.
Cc1ccc(-c2ccnc3[nH]n(-c4ccccc4)c(=O)c23)cc1,4069,6,2,-4.3,-27,-1,0
COc1ccc(CCNCC(=O)Nc2ccc(OC(F)(F)F)cc2)cc1OC,3464,-7,-1,-1.9,-10,1,2
CCOc1ccc(C2=NNC(c3cccs3)=Nc3ccc(OC)cc32)cc1OCC,2864,.,.,6.7,6,2,1
CCC(C)N(C(=O)CSc1nnc2ccccn12)C1CCS(=O)(=O)C1 (stereo not given),5904,-2,8,1.9,-14,9,.
N#CCSc1nnc(-c2sc3ccccc3c2Cl)o1,1810,3,4,4.5,-4,-6,1
Cc1cc(N2CCOCC2)n2nc(-c3cccc(F)c3)cc2n1,12312,9,6,-0.8,.,-9,-10
COc1ccc(/C=C/c2cc[n+](C(=O)Cc3ccccc3)cc2)cc1,7171,8,5,5.6,-27,-3,.
C/C(=N\NC(=S)NCc1ccccc1)c1ccc2c(c1)OCCO2,4559,.,.,.,-26,.,-14
CC1(C)CC(=O)C=C(Nc2ccc(Br)cn2)C1,13373,0,9,3.5,-18,-2,-5
Nc1ccc(S(=O)(=O)NC2=NCCCCC2)cc1N,3210,10,8,2.8,-4,7,5
Cc1ccccc1N1CC(C(=O)Nc2ccc(S(=O)(=O)N3CCCCC3)cc2)CC1=O (stereo not given),3635,10,7,2.7,-19,0,-3
CC(=O)N1N=C2C3CCN(CC3)C2C1c1cccc2ccccc12 (stereo not given),4712,7,16,-11,-16,-1,0

# Ordered by number of heavy atoms (highest first): three of the compounds above
smiles,Bead autofluor,Mtb hypoxia rep,Mtb hypoxia rep growth,RN4220 kill,PrP UTR inh,Sa ugtP lethal,BJeLR viability
CN(CC(=O)Nc1ccc(F)cc1)C(=O)c1ccc(OCc2ccccc2)cc1,4240,3,-12,3.6,-30,8,.
O=C(CCC1COc2ccccc2O1)Nc1ncccc1O (stereo not given),4846,.,.,7.7,-11,4,7
CC1(C)CC(=O)C=C(Nc2ccc(Br)cn2)C1,13373,0,9,3.5,-18,-2,-5

# (next part)
smiles,Bead autofluor,Mtb hypoxia rep,Mtb hypoxia rep growth,RN4220 kill,PrP UTR inh,Sa ugtP lethal,BJeLR viability
Cc1c(/C=N/N=C2\CCC3C4CCc5cc(O)ccc5C4CCC23C)cnn1C (stereo not given),2717,.,.,.,-3,.,4
COc1ccc(O)c(C(=O)c2cc(C#N)c(=O)n(CCN3CCOCC3)c2)c1,2885,5,8,2.9,-25,3,-2
COc1ccc(C2(CNC(C)=O)CCCC2)cc1OC,6065,.,.,0.0,-10,6,-2
COc1ccc(-c2nnc(SCC(=O)c3cccs3)n2-c2ccc(Cl)cc2)cc1,2425,6,12,3.4,-5,-18,-13
CCc1nnc(NC(=O)c2ccc3nc(CC)c(CC)nc3c2)s1,5153,0,5,3.8,-22,-1,-3
O=C(COC(=O)/C=C/c1ccc(Cl)cc1Cl)NCC1CCCO1 (stereo not given),4049,-2,1,8.9,-5,3,.
CCC1(CC)NC(=O)N(CC(=O)N2CCc3ccccc32)C1=O,4150,6,14,1.2,-33,0,.
O=C(Cn1nc(Cc2cccnc2)c2ccccc2c1=O)NCc1ccc2c(c1)OCO2,5342,-9,3,-3.6,-6,-4,3
COC(=O)c1c(C)[nH]c(C(=O)/C=C/c2cccc(Cl)c2)c1C,2379,3,-1,8.6,-128,2,-5
CC(C)C[C@H]1CN=C(Nc2ccccc2)N1CC1CCC1,3589,.,.,.,-5,.,-3
O=[N+]([O-])c1cc([N+](=O)[O-])c(N2CCCCCC2)cc1NCCO,8212,-4,-8,3.3,-41,-3,5
Cc1ccc(Cn2c(O)c(N=NC(=S)Nc3ccccc3F)c3ccccc32)cc1,3327,0,5,-7.1,23,-18,1
O=C(CN1CCN(c2ccccc2)CC1)Nc1ccccc1C(F)(F)F,4116,.,.,1.4,-15,-11,2
Cc1cc(C)nc(N(C#N)CN2C(=O)c3ccccc3S2(=O)=O)n1,2931,.,.,-0.8,-16,2,-8
O=C(Cc1ccc(-c2ccccc2)cc1)Nc1ccccc1,4142,11,2,5.8,-26,-2,0
C/C(=N\NC(=O)c1cccs1)c1ccncc1,3508,.,.,.,-16,.,-6
N#CCC(=O)Nc1ccc(C(=O)OCC(=O)c2ccc3c(c2)NC(=O)CO3)cc1,6266,8,-2,1.4,-27,7,.
Oc1c(Br)cc(Br)cc1C=NN1CCN(Cc2ccccc2)CC1,.,3,-4,1.3,.,10,.
CC1CCN(C(=O)Cn2nnnc2CN2CCOCC2)CC1,4040,12,4,3.7,1,7,4
O=C(CCN1C(=O)S/C(=C/c2ccccc2)C1=O)Nc1ccc(O)c(C(=O)O)c1,4857,1,-6,2.3,-36,5,-1
Cc1csc(Nc2ccc(Cl)cc2)n1,4651,-1,14,1.8,-49,0,13
Cc1ccc(S(=O)(=O)NN2C(=O)c3ccccc3NC2C)cc1 (stereo not given),2364,6,-5,3.8,-19,9,7
O=c1c2c(nc3nc(NCc4ccccc4Cl)[nH]n13)CCC2,.,11,2,1.7,.,7,-9
O=C(Nc1ccc2ccccc2n1)c1ccccc1,3683,5,10,5.3,-58,1,10
CN1CCN(CC(=O)c2cc(C(C)(C)C)c(O)c(C(C)(C)C)c2)CC1,4056,7,-1,-2.9,-59,13,4
O=C(Nc1ccccn1)c1c(O)c2cccc3c2n(c1=O)CCC3,3010,-4,4,3.2,-42,-13,-7
Cc1ccc(Cn2ccsc2=NC(=O)CCl)cc1,3951,.,.,6.4,-44,10,.
Cc1cccc(-c2nc3ccccc3c(=O)n2N)c1,3223,7,-7,4.9,-3,8,1
O=C(NCC1CCN(c2ccc(S(=O)(=O)N3CCOCC3)cc2)CC1)Nc1ccccc1,2956,3,3,2.8,-26,6,-10
Cc1ncoc1C(=O)Nc1cccc(Cl)c1,16565*,0,0,4.3,-42,5,-9

# Screening data (PubChem)
